OX1R antag: OX1R (HCRTR1) antagonists, primary screen, fluorescence, CHO/OX1R cells, Fluo-8 calcium, orexin A. Fluo-8 calcium fluorescence. AID 434989, 2010. inhibition, % at 5 µM. Orexin/Hypocretin receptor type 1 (Homo sapiens), O43613. 0.43% of 330,000 active;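 active means inhibition above its plate's threshold, mean inhibition of all tested compounds on the plate plus 3 SD, cut at about 37% in these data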;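 further: 0% = orexin A challenge wells and 100% = SB-334867-A antagonist wells; not every result past the cut was called active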
Target sequence (O43613 whole entry, looked up): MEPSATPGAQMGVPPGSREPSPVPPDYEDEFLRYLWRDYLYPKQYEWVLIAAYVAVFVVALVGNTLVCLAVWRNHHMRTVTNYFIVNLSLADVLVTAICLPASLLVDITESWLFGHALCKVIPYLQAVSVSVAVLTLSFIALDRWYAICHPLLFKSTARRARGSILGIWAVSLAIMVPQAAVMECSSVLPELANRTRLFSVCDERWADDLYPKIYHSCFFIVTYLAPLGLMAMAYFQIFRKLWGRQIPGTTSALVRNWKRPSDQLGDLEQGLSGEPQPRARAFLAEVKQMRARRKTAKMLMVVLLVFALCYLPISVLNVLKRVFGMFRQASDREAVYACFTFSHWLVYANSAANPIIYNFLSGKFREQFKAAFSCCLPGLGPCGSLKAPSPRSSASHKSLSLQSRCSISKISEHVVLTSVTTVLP
Active calls of the source: *. These rows are one share of the data; most or all hits stand in other tables.

SMILES | OX1R antag
Cc1cccc(NC(=O)Cn2cc([N+](=O)[O-])cn2)n1 | -6
O=c1c2ccccc2nc(SCc2nnc(-c3ccccc3Br)o2)n1Cc1ccco1 | -23
Cc1[nH]nc2c1C(c1c[nH]c3ccccc13)C(C#N)=C(N)O2 (centres undefined) | -1
O=c1cc(N2CCCCCC2)[nH]c(=O)n1-c1ccccc1Cl | -5
CN(CC(=O)Nc1ccccc1Cl)C(=O)CCc1nc2ccccc2c(=O)[nH]1 | -19
CS(=O)(=O)c1ccc(C(=O)N(Cc2ccccc2)c2ccccc2)cc1 | -16
Clc1cccc(CN2CCN(c3ncccn3)CC2)c1Cl | -4
Cc1ccc(S(=O)(=O)NCC(=O)Nc2ccc3c(c2)OCO3)cc1 | -12
Cc1ccc(NC(=O)CSc2nc(CSc3ccc(C)cc3)cc(=O)[nH]2)cc1 | -10
CCCCCCC(=O)Nc1ccc(C(=O)N/N=C/c2cccnc2)cc1 | -24
CN(C)CCN1C(=O)C(O)=C(C(=O)c2cc3ccccc3o2)C1c1cccc(Br)c1 (centres undefined) | -28
O=C(O)Cn1c(SC2CCCCC2)nc2ccccc21 | -7
N#CCOC(=O)C1CSC2(c3ccc(Br)cc3)CCC(=O)N12 (centres undefined) | -8
COCCn1c(COc2ccc(Cl)cc2)nnc1SCC(N)=O | -1
COc1ccc(CN2CC(=O)N(c3ccc(C)cc3)C2=S)cc1OC | -23
CCOC(=O)C(C)c1nn(C)c(=O)c2ccccc12 (centres undefined) | -7
Cc1ccc2[nH]c(=O)c(CN(CCc3ccccc3)C(=O)N3CCOCC3)cc2c1 | -25
COc1ccc(N2CC(C(=O)Nc3nnc(SCC(=O)NCc4ccco4)s3)CC2=O)cc1 (centres undefined) | -22
Cc1ccc(CN2CCN(Cc3ccc(C)s3)CC2CCO)cc1 (centres undefined) | -46
Cc1nc2ccccc2c(=O)n1NS(C)(=O)=O | -12
CCOC(=O)N1CCN(C(=O)COc2ccc(S(=O)(=O)NCC(C)C)cc2C)CC1 | -21
CC(=O)Cn1cnc2c(cnn2-c2ccccc2)c1=O | -2
COc1cccc(NC(=O)C2CCN(S(=O)(=O)c3ccc4c(c3)OCCO4)CC2)c1 | -20
Cc1ccc(CNC(=O)C(=O)NCC2CCCN2S(=O)(=O)c2cc(C)ccc2C)cc1 (centres undefined) | -40
CCCCCCCNC(=O)C1(CC2CC(c3ccc(Cl)cc3)=NO2)CCN(C(=O)C2(C)CC2)CC1 (centres undefined) | -47
OC1CC(c2ccco2)NC2(CCCCC2)C1 (centres undefined) | -4
COc1ccc(CCNC(=O)CN(C2CCCCC2)S(C)(=O)=O)cc1 | -25
COc1cc(C(=O)N2CCN=C2c2ccccc2)cc(OC)c1OC | -25
Cc1ccc(C)c(SCC(=O)Nc2ccc(S(=O)(=O)Nc3ncccn3)cc2)c1 | -5
O=C1NCCN(Cc2ccc(Cl)c(F)c2)C1CC(=O)N1CCCCO1 (centres undefined) | -13
CC(=O)Nc1cccc(C(=O)OCc2ccccc2)c1 | -10
Cc1ccc(-n2nc(C)cc2N)c(C)c1 | -21
COc1cccc(CC(=O)Nc2sc3c(c2C(N)=O)CCCC3)c1 | -6
CSc1ccccc1C(=O)Nc1cccc([N+](=O)[O-])c1C | -6
Cn1cnnc1SCC(=O)N1CCc2ccccc21 | -2
Cc1ccnc(NC2CCCCC2)c1 | -3
O=C(Nc1nccs1)c1cccnc1Cl | -5
CCN(C(=O)CSc1nnc2nc(C)cc(C)n12)c1ccccc1 | -14
Cc1cnc(NC(=O)Cc2c[nH]c3ccccc23)s1 | -13
COc1cc(NC(=O)c2cccc(Cl)c2)c(OC)cc1NC(=O)CN1CCOCC1 | -35
O=C(NCC1CCCN(Cc2cccc(F)c2)C1)c1cccc2ccccc12 (centres undefined) | -29
COc1ccccc1NC(=O)CSc1nnc(Cn2cnc3ccccc32)n1C | -10
Cc1c(Cl)ccc2c1NC(=O)[C@]21[C@@H]2C(=O)N(Cc3ccccc3)C(=O)[C@@H]2[C@@H]2CCCN21 | -25
O=C(CCn1nnc2ccccc2c1=O)N[C@@H](Cc1ccccc1)C(=O)O | -2
CCN(CC)S(=O)(=O)c1ccc(OC)c(NC(=O)c2cccc(C)c2[N+](=O)[O-])c1 | -37

A second format for 16 compounds above:
OX1R antag,SMILES
-6,Cc1cccc(NC(=O)Cn2cc([N+](=O)[O-])cn2)n1
-23,O=c1c2ccccc2nc(SCc2nnc(-c3ccccc3Br)o2)n1Cc1ccco1
-1,Cc1[nH]nc2c1C(c1c[nH]c3ccccc13)C(C#N)=C(N)O2 (centres undefined)
-5,O=c1cc(N2CCCCCC2)[nH]c(=O)n1-c1ccccc1Cl
-19,CN(CC(=O)Nc1ccccc1Cl)C(=O)CCc1nc2ccccc2c(=O)[nH]1
-16,CS(=O)(=O)c1ccc(C(=O)N(Cc2ccccc2)c2ccccc2)cc1
-4,Clc1cccc(CN2CCN(c3ncccn3)CC2)c1Cl
-12,Cc1ccc(S(=O)(=O)NCC(=O)Nc2ccc3c(c2)OCO3)cc1
-10,Cc1ccc(NC(=O)CSc2nc(CSc3ccc(C)cc3)cc(=O)[nH]2)cc1
-24,CCCCCCC(=O)Nc1ccc(C(=O)N/N=C/c2cccnc2)cc1
-28,CN(C)CCN1C(=O)C(O)=C(C(=O)c2cc3ccccc3o2)C1c1cccc(Br)c1 (centres undefined)
-7,O=C(O)Cn1c(SC2CCCCC2)nc2ccccc21
-8,N#CCOC(=O)C1CSC2(c3ccc(Br)cc3)CCC(=O)N12 (centres undefined)
-1,COCCn1c(COc2ccc(Cl)cc2)nnc1SCC(N)=O
-23,COc1ccc(CN2CC(=O)N(c3ccc(C)cc3)C2=S)cc1OC
-7,CCOC(=O)C(C)c1nn(C)c(=O)c2ccccc12 (centres undefined)

(more compounds)
SMILES | OX1R antag
CCc1nc2ccc(C(=O)NCCc3ccco3)cc2nc1CC | -39
O=S1(=O)CC(O)C(NCc2cccnc2)C1 (centres undefined) | -5
Cn1c(Cn2cnc([N+](=O)[O-])n2)nnc1SCC(=O)Nc1cccc(Cl)c1 | 2
Cc1cccc(Oc2coc3cc(O)ccc3c2=O)c1 | -14
CN(C)c1ccc(C(CC(=O)c2ccccc2)C2CCCCC2=O)cc1 (centres undefined) | -9
CCC1(CC)Cc2ccccc2-c2nc(CCl)[nH]c(=O)c21 | 3
CCOc1cccc(C(=O)N2CCCN(C)CC2)c1 | -20
O=C(CSc1nccn1Cc1ccco1)Nc1ccc(F)cc1 | -12
CCc1ccccc1NC(=S)N1CCC(C(=O)c2ccc(F)cc2)CC1 | -8
COc1ccc(OC)c2[nH]c(C(=O)O)cc12 | -18
CC(Oc1ccccc1)C(=O)NCc1cccnc1 (centres undefined) | 2
CCOC(=O)c1c(NC(=O)CSc2nnc(Cc3csc(N)n3)n2C)sc(C)c1C | -8
O=C(NCc1ccco1)/C(=C/c1cccc(C(F)(F)F)c1)c1nc2ccccc2[nH]1 | 3
CCOC(=O)C1CCN(c2nnc(N3CCCC3=O)s2)CC1 | -10
COCCNC(=O)c1cc(C(=O)CC(C)C)c[nH]1 | -16

Already shown: an excerpt of the list.
SMILES | OX1R antag
COc1ccc(OC)c2[nH]c(C(=O)O)cc12 | -18
CC(Oc1ccccc1)C(=O)NCc1cccnc1 (centres undefined) | 2

Remaining list, next part
SMILES | OX1R antag
CCOc1ccc(CCNC(=O)c2cccc(S(=O)(=O)N3CCN(C(C)=O)CC3)c2)cc1OCC | -22
COc1cccc(NS(=O)(=O)c2c(C)nc3sccn3c2=O)c1 | -5
COc1ccc(-n2c(=S)[nH]c(=O)c3cccnc32)cc1 | -11
COc1cc(NS(=O)(=O)c2ccc(NS(=O)(=O)c3ccccc3)cc2)nc(OC)n1 | -7
COc1cc(C2C3=C(CC(C)(C)CC3=O)N(C)C(=O)N2C)cc(OC)c1OC (centres undefined) | -25
Cc1ccc(-c2ccc(SCC(=O)Nc3nonc3C)nn2)cc1 | -16
O=C1CN(C(=O)c2ccccc2C(=O)O)c2ccccc2N1 | 0
COc1ccc(N(C(=O)COc2ccc(F)cc2)S(=O)(=O)c2ccc(C)cc2)cc1 | 16
CN1CCN(C(=O)c2ccccc2N(Cc2ccccc2)S(C)(=O)=O)CC1 | -10
O=C(CCN1C(=O)C2C3C=CC(C3)C2C1=O)N1CCN(c2cccc(Cl)c2)CC1 (centres undefined) | -6
Cc1ccc(C(=O)N/N=C/C=C/c2ccccc2)cc1 | -7
O=C(Nc1ccc(Cl)cn1)C1CCN(c2ncnc3c2nc2n3CCCCC2)CC1 | -32
Cc1ccc(NC(=O)NC(=O)CN2C(=O)NC3(CCCCCCC3)C2=O)c(C)c1 | -33
COc1cc(-c2nnc(-c3ccncc3)o2)ccc1OCc1ccccc1 | -20
Cc1ccnn1CCC(=O)O | 3
O=C(NCc1cccnc1)c1cccc(-c2cc3ccccc3oc2=O)c1 | -17
Nc1ccc(C(=O)O)cc1S(=O)(=O)O | -3
O=c1c2ccccc2ncn1Cc1nc2ccccc2s1 | -17
CCSc1ccc(NC(=O)c2cccnc2)cc1 | 0
COc1ccccc1CNC(=O)C1CC(c2ccccc2C(F)(F)F)=NO1 (centres undefined) | -16
NNC(=O)c1ccc(-c2ccccc2F)cc1 | -18
CCOC(=O)CSc1nnc(CNC(=O)c2cccs2)n1-c1cc(C)ccc1C | -20
Cc1ccc(S(=O)(=O)N2CCN(Cc3ccccn3)CC2)cc1 | -22
COc1cc(/C=N\n2nnnc2N)ccc1OCc1ccc(F)cc1 | -6
CCOC(=O)C1CCN(C(=O)c2cccc(NC3=NC4CS(=O)(=O)CC4S3)c2)CC1 (centres undefined) | 9
O=C(CN1C(=O)COc2ccc(Cl)cc21)Nc1ccccn1 | -18
CC(=O)c1nc(N2C(=O)CC(Cc3ccc(C)cc3)C2=O)sc1C (centres undefined) | -17
CCOc1ccc(NC(=O)Cc2ccccc2)cc1 | -14
CCCNC(=O)c1ccc2c(=O)c(O)c(-c3ccc(C)cc3)[nH]c2c1 | -6
CCCSc1cc(N2CCOCC2)nc(-c2ccccc2Cl)n1 | -22
Cc1ccc(S(=O)(=O)CCC(=O)OCc2nc(N)nc(Nc3ccccc3C)n2)cc1 | -22
CC(C)(C)C(=O)NC(NC(=S)Nc1ccc(S(N)(=O)=O)cc1)C(Cl)(Cl)Cl (centres undefined) | 1
Cc1ccccc1C(=O)OCCN1CCOCC1 | -8
O=C(CCNc1ccc(F)cc1)c1ccco1 | -2
CSc1ccc(CN2CCCC(N3CCN(c4ccccc4)CC3)C2)cc1 (centres undefined) | -33
C/C(=N\NC(=O)c1cc2ccccc2cc1O)c1ccc2c(c1)OCO2 | -13
Cc1csc(NC(=O)NC2(C(F)(F)F)Oc3ccccc3O2)n1 | 0
Cc1cccc(N(Cc2ccccc2)C(=O)Cc2ccc(S(=O)(=O)N3CCOCC3)s2)c1 | -7
CC(NS(=O)(=O)/C=C/c1ccccc1)C(=O)O (centres undefined) | -16
CCN(CC)CCOC(=O)C12CC3CC(CC(C3)C1)C2 | -28
COc1ccc(CCNC(=O)Cn2c(=O)n(-c3cc(F)ccc3F)c(=O)c3sccc32)cc1OC | -14
COc1ccc(NC(=S)Nc2ccc(OC(F)F)cc2)cn1 | 7
Fc1ccc(-n2c(-c3ccc4ccccc4n3)n[nH]c2=S)cc1Cl | -21
O=C(Cc1cccs1)N1CCN(c2ccc([N+](=O)[O-])cc2)CC1 | 11
COc1ccc(S(=O)(=O)Cc2ccc(C(=O)NCc3ccccc3)o2)cc1 | -19
COC(=O)c1ccc(CN2C(=O)C3CCCCC3C2=O)o1 (centres undefined) | 2
Cc1ccc(-n2c(SCC(N)=O)nnc2-c2cccnc2)c(C)c1 | -4
Cc1ccc2[nH]c(C(=O)O)c(NC(=O)CN3CCN(c4cccc(C)c4C)CC3)c2c1 | -9
c1ccc(Nc2nnc(-c3cccc4ccccc34)o2)cc1 | 7
O=C(CSC1=NCCS1)NCc1ccco1 | -7
O=C(CN1CCOCC1)NCCNS(=O)(=O)c1ccccc1 | -2
Nc1c(-c2ccccc2)c(CSc2nc3ccccc3[nH]2)nn1-c1ccc(Cl)cc1 | -22
Cc1cccc(C)c1Nc1nnc(SCC(=O)Nc2sccc2C#N)s1 | -38
CN(C)c1ccc(CNc2ncn[nH]2)cc1 | -14
O=S(=O)(c1ccccc1)N1CCN(C2CCCCCCC2)CC1 | -10
CCn1c(CCNC(=O)c2ccc(Cl)cc2)nnc1SCC(=O)NC1CCCC1 | -10
CCCCCCCOc1ccc(OC(=O)c2cccnc2)cc1 | 1
CCn1c(SCC(N)=O)nnc1-c1cc2c(C)nn(-c3ccccc3)c2s1 | -13
COc1ccccc1NS(=O)(=O)c1ccc(C(=O)N2CCN(c3ccccc3O)CC2)cc1 | -13
COc1cccc(N2CCN(C(C)C(=O)NC34CC5CC(CC(C5)C3)C4)CC2)c1 (centres undefined) | -42

Next results follow:
SMILES | OX1R antag
COc1ccc(C(=O)Nc2ccc(S(=O)(=O)Nc3nccnc3OC)cc2)cc1OC | -2
COc1cc(C(CCN2CCCCC2)c2c(OC)cc(OC)c3c(C)cc(=O)oc23)cc(OC)c1OC (centres undefined) | -29
CCN1CCN(C(c2cccs2)C(C)NC(=O)c2cccc(OC)c2OC)CC1 (centres undefined) | -21
COc1c(C(=O)NCCSC(C)(C)C)ccc2ccccc12 | -13
Cc1ccc(C)c(NC(=S)NC(NC(=O)/C=C/c2ccccc2)C(Cl)(Cl)Cl)c1 (centres undefined) | -22
Cc1cccc(C(=O)Nc2ccc(C(=O)N/N=C/c3cccc(C)n3)cc2)c1 | -14
Cc1cc(=O)[nH]c(SCC(=O)Nc2nc(-c3ccccc3)cs2)n1 | 4
N#Cc1c(SCC(=O)Nc2cccc(C(F)(F)F)c2)sc2c(O)cc(=O)[nH]c12 | 13
Cc1ccc2cc(/C=C/C(=O)c3ccco3)c(Cl)nc2c1 | -32
O=Cc1ccc(Oc2cc(-c3ccccc3)nc(-c3ccccc3)n2)cc1 | 5
O=C(Nc1cccc(F)c1)OC(CN1CCCCC1)C(F)(F)F (centres undefined) | -21
N=C1C(c2nc3ccccc3[nH]2)=C(O)CN1c1ccc(CC(=O)O)cc1 | -9
Cc1sc(NC(=O)CN(C(=O)c2ccccc2F)C2CCCC2)c(C(N)=O)c1C | -3
CCc1ccc(OCC(O)CN2CCN(CCO)CC2)cc1 (centres undefined) | -14
CCCSC1=C(C#N)C(c2cccs2)CC(=O)N1 (centres undefined) | 5
CCCCc1nc2cc(C(=O)N3CCNC(=O)C3)ccc2o1 | -15
